2A Renilla – Primary qHTS Assay for Foot and Mouth Disease Virus Antivirals against NCGC Sytravon and CBC Compound Libraries: Renilla Luciferase Signal; 120,000 tested, 0.32% active; HEK cells with a luciferase reporter of 2A StopGo recoding; Potency, µM (top dose mostly 57.5 µM), inactives show at the top dose signal change, negative = less light; AID 1745857, 2022; active means well fitted falling curve with a large enough effect; inconclusive means small, poorly fitted or top-dose-only effect; inactive means no such curve, though single readings can be large or run the other way; also: nearly all actives have a fitted effect of over 55% in size; overnight with compound
StopGo FLuc – Primary qHTS Assay for Foot and Mouth Disease Virus Antivirals against NCGC Sytravon and CBC Compound Libraries: Firefly Luciferase Signal | Potency, µM (doses to about 57.5 µM), without a hit: at the top dose signal change, negative = less light | 120,000 tested, 0.23% active | HEK cells with a luciferase reporter of 2A StopGo recoding; active = well fitted falling curve with a large enough effect; inconclusive = small, poorly fitted or top-dose-only effect; inactive = no such curve, though single readings can be large or run the other way; also: nearly all actives have a fitted effect of over 60% in size; overnight with compound
The depositor's hits bear a star; ? = inconclusive; [ ] = dose if it differs, or a comment. % is scaled to controls: 0 for no effect and ±100 for the full control effect; potency is read from the fitted curve at half-maximal effect. Only part of the results is shown. The share of hits here may be higher or lower than overall.

SMILES	2A Renilla	StopGo FLuc
CCOCCCNC(=O)Cn1ncc2c([nH]c3ccccc32)c1=O	16%	-15%
COc1ccc(S(=O)(=O)Nc2c(N3CCCC3)c3ccccc3oc2=O)cc1Cl	15%	0%
Cc1ccc(C)c(OCc2nc3ccccc3n2C)c1	45%[activator]	57%[activator]
COc1ccccc1OCC(=O)N1CCC(c2nc3ccccc3o2)CC1	0%	-21%
CC(=O)c1cccc(NC(=O)c2nc3ccccc3n(C)c2=O)c1	7%	152%[activator]
Cc1cc(N2CCN(c3ccccc3F)CC2)n2cnnc2n1	?	-9%
Cc1noc2nc(C3CC3)cc(C(=O)NCc3ccc4c(c3)OCCO4)c12	25%	-8%
COc1ccc(NC(=O)NCC2CCN(Cc3ccccc3F)CC2)c(OC)c1	-10%	-19%
Cc1cc(C)n(-c2nc3c(c(=O)[nH]c(=O)n3C)n2C/C=C/c2ccccc2)n1	13%	16%
O=S(=O)(c1ccc(Cl)c2ccccc12)N1CCCC1	22%	9%
COc1ccc(CNC(=O)CSc2ncc3c(n2)-c2ccc(Cl)cc2N(Cc2ccccc2)S3(=O)=O)cc1	-8%	-16%
Cc1cccc(OCC(=O)Nc2cc(-c3nn(C)c(=O)c4ccccc34)ccc2N2CCOCC2)c1	-21%	-26%
Cc1ccc(Cn2c(Sc3ccc(C)cc3)nc3c2c(=O)[nH]c(=O)n3C)cc1	-2%	9%
CCOc1ccc(CNC(=O)c2cc(=O)[nH]c3ccc(S(=O)(=O)N4CCCC4)cc23)cc1	-11%	-13%
Cc1ccc(NC(=O)c2cc(-c3ccc(Br)s3)nc3ccccc23)cc1F	-11%	-2%

Next part (two carried over from the part before).
SMILES	2A Renilla	StopGo FLuc
CCOc1ccc(CNC(=O)c2cc(=O)[nH]c3ccc(S(=O)(=O)N4CCCC4)cc23)cc1	-11%	-13%
Cc1ccc(NC(=O)c2cc(-c3ccc(Br)s3)nc3ccccc23)cc1F	-11%	-2%
Cc1cc(Cl)ccc1OCC(=O)Nc1ccc(N2CCN(C(=O)c3cccs3)CC2)cc1	5%	17%
CCCCn1c(=O)[nH]c(=O)c2c1nc(CN1CCN(S(=O)(=O)c3ccccc3)CC1)n2CC	12%	-2%
O=C(c1cc2ccccc2oc1=O)N(Cc1ccccc1)c1cccc([N+](=O)[O-])c1	7%	38%[activator]
O=C(O)c1ccc2nc(-c3ccc(-c4ccccc4)cc3)c(-c3ccc(-c4ccccc4)cc3)nc2c1	-8%	-24%
Cc1c(C)c2ccc(OCC(=O)NCCCn3ccnc3)c(C)c2oc1=O	-7%	3%
Cc1cccc(-c2nnc(SCC(=O)NC3CCCCC3)o2)c1	-7%	19%
CCCn1c(SCC(=O)O)nc2c1c(=O)[nH]c(=O)n2C	-9%	-10%
COc1ccc(C(CC(=O)NCc2ccccc2)Sc2n[nH]c(-c3ccc(F)cc3)n2)cc1 (centres undefined)	15%	-3%
O=C(c1ccc2c(c1)N(Cc1ccc(F)cc1)C(=O)c1ccccc1S2(=O)=O)N1CCC(Cc2ccccc2)CC1	-13%	-24%
N#Cc1ccccc1COc1ccccc1	5%	31%[activator]
CC(C)Cn1cnc2c1c(=O)n(CC(=O)Nc1ccc3c(c1)OCO3)c(=O)n2Cc1ccccc1	10%	-10%
CCC(O)c1nc2ccccc2n1Cc1cccc(Cl)c1 (centres undefined)	24%	2%
O=c1c(-c2ccccc2)c1-c1ccccc1	?	?
CCOC(=O)C1CCN(C(=O)c2cc3sc(C)cc3n2C)CC1	5%	67%[activator]
COc1ccc(NC(=O)CSc2nc(-c3ccc(F)cc3)[nH]c2-c2ccc(C)cc2)cc1OC	9%	-16%
O=C(Nc1ccc2nc(SCC(=O)N3CCOCC3)sc2c1)c1ccc(F)cc1	-21%	-15%
O=C(C1=C(c2ccccc2)S(=O)(=O)CCO1)N(Cc1cccs1)c1ccccn1	?	-9%
O=C1CSc2ccc(C(=O)OCC(=O)c3c[nH]c4ccccc34)cc2N1	8%	43%[activator]
O=C(NC1CC1)C(Sc1ccc2ccccc2c1)c1ccc(F)cc1 (centres undefined)	-13%	17%
Cc1c(C#N)c(NC(=O)CSc2nnnn2C2CCCCC2)n(CC2CCCO2)c1C (centres undefined)	16%	-1%
CC1=C(C(=O)OC2CCCCCC2)C(c2cccc(F)c2F)CC(=O)N1 (centres undefined)	-12%	-6%
COc1ccccc1C(=O)Nc1ccc2oc(-c3ccccc3C)cc(=O)c2c1	23%	15%
CC(C(=O)c1c[nH]c2ccccc12)N(Cc1ccc(F)cc1)C1CC1 (centres undefined)	-14%	0%
CCOc1ccc(OCCCCOc2cccc(Cl)c2)cc1	-9%	11%
c1ccc(-c2ccc(CNC3CCCC3)o2)cc1	-9%	21%
CCOc1ccccc1NC(=O)CSc1nc2c([nH]c3ccccc32)c(=O)n1-c1ccccc1	-13%	-11%
CCNc1nc(SC(C)C(=O)NC(=O)NC2CC2)nc2ccccc12 (centres undefined)	1%	8%
Cc1ccc(C)c(NC(=O)CC(C)(C(=O)O)c2ccccc2)c1 (centres undefined)	36%[activator]	3%
N#Cc1nc(COc2ccccc2F)oc1NCCc1ccccc1	16%	116%[activator]
COc1ccc(C(=O)Nc2oc3ccccc3c(=O)c2-c2ccc3c(c2)OCO3)cc1	22%	88%[activator]
O=S(=O)(C/C=C/c1ccccc1)Cc1cccc(F)c1	137%[activator]	0%
Cc1ccc(-c2noc(CNC(=O)c3ccccc3)n2)cc1	6%	12%
COc1cccc(N2C(=O)c3cc4occc4n3CC2(C)C(=O)NC2CCCCCC2)c1 (centres undefined)	-3%	-4%
Cc1ccc(OCn2ccc(C(=O)NCc3ccn(C)n3)n2)c(C)c1	-5%	11%
COC(=O)c1cc(-c2ccco2)nc2c(Cl)cccc12	-18%	-18%
CCC(C)NC(=O)c1cn(CC)c2ccc(S(=O)(=O)N3CCc4ccccc4C3)cc2c1=O (centres undefined)	-3%	0%
CCOC(=O)N1CCC(NC(=O)c2ccc3c(c2)N(Cc2ccccc2)C(=O)c2ccccc2S3(=O)=O)CC1	64%[activator]	0%
COc1cc2c(cc1OC)C(COc1ccc3c(C)cc(=O)oc3c1)N(C(=O)c1ccccc1C)CC2 (centres undefined)	-17%	-16%
O=C(Cn1cc(Br)c(=O)[nH]c1=O)N1CCC(C(=O)N2CCCCC2)CC1	-4%	-1%
COc1ccc(-c2coc3cc(OC(=O)c4ccco4)ccc3c2=O)cc1	23%	165%[activator]
O=S(=O)(c1ccc(Oc2cccc(Br)c2)nc1)N1CCCC1	9%	-4%
CCOc1ccc(C(=O)Nc2ccc(N3CCN(C(=O)c4ccc(C)cc4)CC3)cc2)cc1	-9%	-3%
CCc1cccc(NC(=O)Cn2c(-c3ccc(F)cc3)cc(C(C)=O)c2C)c1	1%	-5%
O=C(NCc1cccs1)c1ccc(CSc2nc3ccncc3n2Cc2ccccc2)cc1	0%	50%[activator]
N=C(N)c1cccc(N)c1	3%	3%
Cc1ccsc1/C=C(/C#N)C(N)=S	7%	14%
COc1ccc(-c2nc(CN3C(=O)CN=C(c4ccccc4)c4ccccc43)c(C)o2)cc1OC	13%	-7%
CCOc1ccc(N2C(=O)c3cc(-c4ccco4)nn3CC2(C)C(=O)NC2CCCCC2)cc1 (centres undefined)	8%	0%
Cc1ccc(C(c2c(O)c3ccccc3oc2=O)c2c(O)c3ccccc3oc2=O)cc1	123%[activator]	-8%
Cc1cccc(C(=O)N(Cc2ccncc2)C2CC2)c1	11%	13%
CCc1cc(Nc2ccc(OC)cc2)n2ncnc2n1	14%	16%
CC(=O)Nc1ccc(S(=O)(=O)N2CCC(c3ccncc3)CC2)cc1	26%	-23%
CCc1ccc(C(=O)NCc2ccc(C#N)cc2)o1	6%	7%
CC(NC(=O)Cn1nc(-c2ccc(F)cc2)oc1=O)c1ccc2c(c1)CCCC2 (centres undefined)	-13%	-14%
CCCN1C(=O)C(O)(CC(=O)c2ccc(CC)cc2)c2cc(Br)ccc21 (centres undefined)	-6%	-30%
Cc1ccc(C)c(NC(=O)C(c2ccccc2)N2CCN(C(=O)C3CC3)CC2)c1 (centres undefined)	13%	1%
CCN(C(=O)CN1C(=O)COc2ccc(S(=O)(=O)N3CCOCC3)cc21)c1ccc(OC)cc1	9%	-23%
CN1CCN(/C=C/C(=O)C(F)(F)F)CC1	9%	10%
COc1ccc(-c2oc3ncn4nc(COc5ccc(C)cc5)nc4c3c2-c2ccc(OC)cc2)cc1	-4%	-7%
CCOc1cc(-c2ccc(OC(=O)c3ccc(OC)cc3)c(OC)c2)cc(=O)c2c(C)oc(C)c12	-1%	41%[activator]

Pulled one by one from the entries so far (2):
SMILES	2A Renilla	StopGo FLuc
CCOc1cc(-c2ccc(OC(=O)c3ccc(OC)cc3)c(OC)c2)cc(=O)c2c(C)oc(C)c12	-1%	41%[activator]
CC(=O)Nc1ccc(S(=O)(=O)N2CCC(c3ccncc3)CC2)cc1	26%	-23%

Other structures:
SMILES	2A Renilla	StopGo FLuc
CCCn1nc(C(=O)NCCOc2cccc(C)c2)c2ccccc2c1=O	15%	17%
CC(=O)c1ccc(NC(=O)/C=C/c2ccc(C)o2)cc1	11%	29%
CCCNC(=O)C1CCC(Cn2c(=O)c3sccc3n(Cc3ccccc3C)c2=O)CC1 (centres undefined)	3%	-9%
Cn1c(=O)oc2cc(S(=O)(=O)N3CCCC(C(=O)N4CCN(c5cccc(Cl)c5)CC4)C3)ccc21 (centres undefined)	6%	8%
COC(=O)C(NC=O)C12CC3CC(CC(C3)C1)C2 (centres undefined)	-4%	2%
Cc1nn(Cc2cc(=O)oc3c(C)c(O)ccc23)c(=O)c(C#N)c1C	-16%	-5%
COc1cc2c(cc1OC)CN(Cc1cc(=O)c(OCc3ccc(Cl)cc3Cl)co1)CC2	-28%	-20%
CC(C)CNc1nc2c(c(=O)n(Cc3ccc(Cl)cc3)c(=O)n2C)n1C	0%	-3%
COc1ccc(/C(C)=N/N=C(\C)c2ccc(OC)c(Br)c2)cc1Br	10%	8%
Cc1c(C(=O)Nc2ccc(F)c(F)c2)oc2ccc(S(=O)(=O)N3CCCCC3)cc12	-10%	-18%
COC(=O)CC(NC(=O)c1cc(C)nc2c1cnn2C(C)C)c1ccc(Br)cc1 (centres undefined)	30%	-8%
Cc1ccc(-n2c(=O)c3cccnc3n2CC(=O)Nc2cc(Cl)ccc2C)cc1	-7%	-10%
C=C(C)COc1ccc2c(=O)c(Oc3ccc(C(=O)OCC)cc3)coc2c1	-4%	11%
CC(C)=CC(=O)NCCSc1ccccc1	10%	296%[activator]
CCN(CC)S(=O)(=O)c1ccc2c(c1)c(=O)c(C(=O)N1CCN(c3ccc(OC)cc3)CC1)cn2C	-1%	-23%
CC(=O)Nc1cccc(NC(=O)COC(=O)c2cc3ccccc3[nH]2)c1	-10%	20%
COc1cc(OC)c(NC(=O)CCS(=O)(=O)c2ccc3c(c2)oc(=O)n3C)cc1Cl	-9%	-10%
COC(=O)c1cc(NC(=O)c2ccc(OC(F)F)c(OC)c2)c(F)cc1F	5%	59%[activator]
COc1ccc(CCNC(=O)CCn2c(=O)c3ccccc3n(Cc3ccccc3C)c2=O)cc1OC	-6%	-12%
O=C(Nc1c2c(nn1-c1ccc(Cl)cc1)CS(=O)(=O)C2)c1ccc(Br)cc1	-15%	?
COc1ccc(C(=O)CSC#N)cc1	195%[activator]	245%[activator]
Cc1ccc2scc(N3CCCCC3C)c(=O)c2c1 (centres undefined)	7%	78%[activator]
Cc1ccc(C)c(Cn2c3ccccc3c3cnn(CC(=O)NCCC4=CCCCC4)c(=O)c32)c1	-14%	-11%
CC(C)NC(=O)CNC(=O)c1nc(-c2ccc3cc[nH]c3c2)no1	-3%	53%[activator]
CCCCOc1ccc(Oc2ccc(C#N)c(C#N)c2)cc1	?	?
Cc1ccccc1-n1c(/C=C/c2ccc(N(C)C)cc2)nc2ccccc2c1=O	2%	-19%
CCc1cc2c(cc3c(=O)n(CCCC(=O)NCc4ccccc4Cl)nc(CC)n32)s1	-5%	9%
CCOc1ccc2c(c1)C(C)=CC(C)(C)N2C(=O)Nc1ccccc1F	16%	73%[activator]
CC1=C(C(=O)OC(C)C(C)(C)C)C(c2ccc(Cl)cc2)NC(=O)N1 (centres undefined)	2%	-8%
Cc1nn(CC(=O)N2CCN(c3cccc(C(F)(F)F)c3)CC2)c(=O)c2cc3sccc3n12	-9%	-2%
O=C(O)CCC(=O)Nc1ccc2c(C(C(=O)O)N3CCN(c4ccccc4)CC3)c[nH]c2c1 (centres undefined)	-5%	-3%
CCOC(=O)c1cc(-c2ccccc2)n(CCCC(=O)Nc2ccccc2C)c1C	-7%	-18%

A different layout for four compounds above.
CCOc1ccc2c(c1)C(C)=CC(C)(C)N2C(=O)Nc1ccccc1F
  2A Renilla = 16%	StopGo FLuc = 73%[activator]

CCOC(=O)c1cc(-c2ccccc2)n(CCCC(=O)Nc2ccccc2C)c1C
  2A Renilla = -7%	StopGo FLuc = -18%

CC(=O)Nc1cccc(NC(=O)COC(=O)c2cc3ccccc3[nH]2)c1
  2A Renilla = -10%	StopGo FLuc = 20%

COc1cc(OC)c(NC(=O)CCS(=O)(=O)c2ccc3c(c2)oc(=O)n3C)cc1Cl
  2A Renilla = -9%	StopGo FLuc = -10%

High-throughput results (PubChem BioAssay)
